DUX4 txn inh: DUX4-mediated transcription inhibition; 293T-iDUX4 ZSCAN4-Gaussia luciferase reporter, 24 h; active compounds read low; activity change, negative = inhibition, % (no concentration beside the values); actives 0.8% (n = 37,000); AID 1224904;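 active = -10% or lower and over 25 points stronger than a control reporter; inconclusive = -10% or lower with a smaller gap; inactive = above -10%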;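 note: 0% = median of neutral control wells and -100% = median of positive control wells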
DUX4 txn inh difference: also measured in DUX4 txn inh; calls as there; Gaussia minus Italica difference, %; measured here: selective DUX4 reporter inhibition;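 worked out from the two reporters; negative = selective loss of the DUX4 reporter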
DUX4 txn inh control: also measured in DUX4 txn inh; calls as there; activity change, negative = inhibition, %; measured here: Italica tet-on control reporter;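 0 = neutral control and -100 = positive control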
An asterisk follows results filed as active; ? = inconclusive; / = no result given.

nr	canonical_smiles	DUX4 txn inh	DUX4 txn inh difference	DUX4 txn inh control
1	CO[C@@H]1CN(C)C(=O)c2cc(NC(=O)c3cnccn3)ccc2OC[C@H](C)N(CCc2ccccc2)C[C@H]1C	-7.8	-10.8	3.0
2	C[C@H]1CN([C@@H](C)CO)C(=O)c2c(c3ccccc3n2C)-c2ccccc2CO[C@H]1CN(C)S(=O)(=O)Cc1ccccc1	2.3	10.7	-8.4
3	Cc1ccc(S(=O)(=O)N(C)C[C@@H]2OCc3ccccc3-c3ccccc3C(=O)N([C@H](C)CO)C[C@@H]2C)cc1	0.4	3.6	-3.2
4	O=C(C[C@H]1C[C@@H]2c3cc(NC(=O)Nc4ccccc4)ccc3O[C@@H]2[C@@H](CO)O1)NCCN1CCCCC1	5.4	-2.2	7.6
5	COCC(=O)N1[C@@H](C#N)[C@@H](c2ccccc2C2=CCCC2)[C@@H]1CO	9.3	8.7	0.6
6	CCCC#Cc1ccc([C@@H]2[C@H](CO)N3C(=O)CN(C(=O)Nc4cccc(F)c4)C[C@@H]23)cc1	?	/	/
7	CO[C@H]1CN(C)C(=O)c2ccc(NC(=O)NC(C)C)cc2OC[C@@H](C)N(S(C)(=O)=O)C[C@@H]1C	7.1	4.6	2.6
8	O=C(CN1CCOCC1)N[C@@H]1CC[C@@H](CCn2cc(C3CC3)nn2)O[C@H]1CO	4.2	4.3	-0.2
9	CNC[C@H]1Oc2c(NC(=O)c3ccc(-c4nccs4)cc3)cccc2C(=O)N([C@H](C)CO)C[C@H]1C	0.1	0.4	-0.3
10	CN(C)Cc1cn(CC[C@H]2CC[C@@H](NC(=O)Cc3cccnc3)[C@@H](CO)O2)nn1	1.1	0.9	0.2
11	CCCNC(=O)[C@H]1[C@H](CO)[C@H]2Cn3c(cccc3=O)[C@H]2N1C(=O)C1CCCC1	-0.5	4.5	-4.9
12	CC(C)NC(=O)N1CC2(C1)[C@@H](c1ccccc1)[C@H](CO)N2C(=O)c1ccccn1	10.7	8.2	2.5
13	CN(C)C(=O)c1cccc(-c2ccc([C@@H]3[C@@H](CO)N4C(=O)CN(C(=O)Cc5ccccc5)C[C@H]34)cc2)c1	18.3	11.6	6.7
14	CO[C@@H]1CC[C@@H]2CCOc3ccc(C#N)cc3C(=O)N(C)C[C@H](c3ccccc3)CC(=O)N(C)C[C@@H]1O2	-4.8	-2.1	-2.8
15	O=C(Nc1cc(F)ccc1F)N[C@@H]1CC[C@@H](CCn2cc(C3CCCCC3)nn2)O[C@@H]1CO	?	/	/
16	COc1ccccc1-c1ccc([C@@H]2[C@H](CO)N3CCCCN(C(=O)CN4CCOCC4)C[C@@H]23)cc1	11.0	-8.1	19.1
17	CO[C@@H]1CN(C)C(=O)c2cc(NS(=O)(=O)c3ccccc3F)ccc2OC[C@H](C)NC[C@H]1C	3.3	2.3	1.1
18	CC1C=NC(S(=O)(=O)N2CC[C@@H]3[C@H]2c2cc(-c4ccccc4)ccc2N(C)[C@H]3CO)=N1 (stereo partly drawn)	10.4	4.9	5.5
19	CC(=O)N1C[C@@H]2[C@H](c3ccccc31)[C@H](CO)N2Cc1ccc(Cl)cc1	4.0	11.1	-7.1
20	OC[C@@H]1[C@@H](c2ccccc2)C2(CN(CC3CCOCC3)C2)N1Cc1nccs1	-0.5	-0.9	0.4

Record cards, as listed above. Order of screens: DUX4 txn inh | DUX4 txn inh difference | DUX4 txn inh control
Record of COc1ccccc1-c1ccc([C@@H]2[C@H](CO)N3CCCCN(C(=O)CN4CCOCC4)C[C@@H]23)cc1 → 11.0 | -8.1 | 19.1
Record of Cc1ccc(S(=O)(=O)N(C)C[C@@H]2OCc3ccccc3-c3ccccc3C(=O)N([C@H](C)CO)C[C@@H]2C)cc1 → 0.4 | 3.6 | -3.2
Record of CO[C@@H]1CN(C)C(=O)c2cc(NS(=O)(=O)c3ccccc3F)ccc2OC[C@H](C)NC[C@H]1C → 3.3 | 2.3 | 1.1
Record of CCCNC(=O)[C@H]1[C@H](CO)[C@H]2Cn3c(cccc3=O)[C@H]2N1C(=O)C1CCCC1 → -0.5 | 4.5 | -4.9
Record of OC[C@@H]1[C@@H](c2ccccc2)C2(CN(CC3CCOCC3)C2)N1Cc1nccs1 → -0.5 | -0.9 | 0.4

Later entries.
nr	canonical_smiles	DUX4 txn inh	DUX4 txn inh difference	DUX4 txn inh control
21	CCCNC(=O)C[C@@H]1CC[C@@H]2[C@H](COC[C@H](O)CN2Cc2ccc(Cl)c(Cl)c2)O1	-7.2	-0.4	-6.8
22	Cc1noc(C)c1NC(=O)Nc1cccc2c1O[C@@H](CN(C)C(=O)NC1CCCCC1)[C@@H](C)CN([C@H](C)CO)C2=O	-1.4	5.6	-7.0
23	O=C(NC1CCCC1)N[C@H]1C=C[C@H](CC(=O)N2CCOCC2)O[C@H]1CO	1.2	-5.1	6.2
24	C[C@H](CO)N1C[C@H](C)[C@H](CN(C)C(=O)c2cc(-c3ccccc3)on2)OCc2cn(nn2)CCCC1=O	-6.5	-12.0	5.4
25	COC(=O)C[C@@H]1CC[C@H]2[C@@H](COC[C@H](O)CN2S(=O)(=O)c2ccc(F)cc2)O1	14.8	10.3	4.5
26	CS(=O)(=O)N1CCCCN2[C@H](CO)[C@H](c3ccc(-c4cccc(C#N)c4)cc3)[C@@H]2C1	14.5	10.4	4.1
27	C[C@@H]1CN([C@@H](C)CO)C(=O)c2cc(NC(=O)C3CCCCC3)ccc2O[C@@H]1CN(C)C(=O)Nc1ccc(C(F)(F)F)cc1	5.2	2.9	2.3
28	Cc1ccccc1S(=O)(=O)Nc1ccc2c(c1)C(=O)N(C)[C@@H]1CC[C@H](CC(=O)O)O[C@H]1CO2	-0.4	-2.9	2.5
29	CCCN(C)C[C@H]1OCc2ccccc2-c2ccccc2C(=O)N([C@@H](C)CO)C[C@H]1C	2.9	-13.6	16.5
30	CO[C@H]1CN(C)C(=O)c2ccc(NC(=O)C3CC3)cc2OC[C@@H](C)N(C(C)=O)C[C@H]1C	6.8	-0.4	7.2
31	O=C(NCC1CC1)[C@H]1[C@H](CO)[C@H]2Cn3c(ccc(-c4cccnc4)c3=O)[C@@H]1N2C(=O)C1CCCCC1	1.3	-6.3	7.6
32	C[C@@H]1CN([C@H](C)CO)C(=O)CCCn2cc(nn2)CO[C@H]1CN(C)S(=O)(=O)c1ccc(F)cc1	1.5	-5.3	6.8
33	CCCC(=O)Nc1ccc2c(c1)C(=O)N(C)[C@H]1CC[C@@H](CC(=O)NCC(F)(F)F)O[C@H]1CO2	1.5	-0.3	1.8
34	COc1ccc2c3c([nH]c2c1)[C@H](CO)N(C(=O)Nc1ccc(F)cc1)CC31CN(Cc2cc(F)ccc2F)C1	?	/	/
35	CCCNC(=O)N1CC2(CCN(C)CC2)c2c(n(C)c3cc(OC)ccc23)[C@H]1CO	10.4	-1.5	11.9
36	CCCNC(=O)[C@H]1[C@H](CO)[C@H]2Cn3c(ccc(C4=CCCCC4)c3=O)[C@H]2N1Cc1ccccc1F	-2.6	-2.2	-0.4
37	Cc1ccccc1S(=O)(=O)N1[C@H](CO)[C@@H](c2ccc(C#CC3CCCCC3)cc2)[C@@H]1C#N	3.3	0.0	3.3
38	O=C(Nc1cc(F)ccc1F)N1C[C@H]2[C@@H](c3ccccc31)[C@@H](CO)N2CC1CCCC1	0.0	-5.8	5.8
39	CCS(=O)(=O)N1[C@H](C#N)[C@@H](c2ccc(C#Cc3ccccc3F)cc2)[C@@H]1CO	-6.7	-8.5	1.8
40	COc1cccc(S(=O)(=O)Nc2ccc3c(c2)C(=O)N(C)C[C@@H](OC)[C@H](C)CN(C(=O)Cc2cccnc2)[C@@H](C)CO3)c1	1.0	1.0	0.0

(further entries)
nr	canonical_smiles	DUX4 txn inh	DUX4 txn inh difference	DUX4 txn inh control
41	O=C(NC1CCCC1)N1CCCCN2[C@@H](CO)[C@H](c3ccc(-c4cncnc4)cc3)[C@@H]2C1	8.4	1.1	7.2
42	O=C(C[C@@H]1CC[C@@H]2[C@H](COC[C@H](O)CN2C(=O)c2cnccn2)O1)NCc1ccc(F)cc1	-3.0	-12.1	9.2
43	Cc1cccc(S(=O)(=O)N2C[C@@H]3[C@H](c4ccccc42)[C@H](CO)N3Cc2cccnc2)c1	-3.3	-0.8	-2.5
44	COCC(=O)Nc1ccc2c(c1)C(=O)N(C)C[C@@H](OC)[C@H](C)CN(Cc1ccccn1)[C@H](C)CO2	0.2	-0.3	0.5
45	O=C(c1ccc(F)cc1)N1C[C@H]2[C@@H](c3ccccc31)[C@@H](CO)N2Cc1ccc2c(c1)OCO2	-1.2	1.5	-2.8
46	C[C@@H]1CCCCO[C@@H](CN(C)C(=O)Nc2ccc3c(c2)OCO3)[C@@H](C)CN([C@H](C)CO)C(=O)c2cc(NS(=O)(=O)c3ccc(F)cc3)ccc2O1	-2.4	-1.8	-0.6
47	CO[C@@H]1CN(C)C(=O)c2cc(NC(=O)c3ccc4c(c3)OCO4)ccc2OC[C@H](C)N(CC2CC2)C[C@@H]1C	-4.0	-6.7	2.8
48	C[C@H](CO)N1C[C@H](C)[C@H](CN(C)C(=O)c2ccccn2)Oc2ncc(-c3ccccc3)cc2C1=O	0.4	-0.1	0.5
49	C/C=C/c1ccc([C@H]2[C@@H](CO)N(C(=O)NCCC)[C@H]2CNC(=O)C2CC2)cc1	-4.4	-4.1	-0.3
50	CN(C)CCCNC(=O)C[C@@H]1CC[C@H]2[C@H](COc3ccc(NC(=O)C4CCC4)cc3C(=O)N2C)O1	-0.1	-0.5	0.3
51	C[C@@H]1CN([C@@H](C)CO)C(=O)c2cc(NS(=O)(=O)c3ccc(F)cc3)ccc2O[C@@H](C)CCCCO[C@@H]1CN(C)C(=O)Nc1ccc2c(c1)OCO2	-4.4	-5.4	1.0
52	Cc1ccccc1S(=O)(=O)N1CC(=O)N2[C@H](CO)[C@H](c3ccc(C#CC4CC4)cc3)[C@H]2C1	-5.3	4.6	-9.9
53	COc1ccc(S(=O)(=O)Nc2ccc3c(c2)OC[C@@H](C)NC[C@H](C)[C@H](OC)CN(C)C3=O)cc1	?	/	/
54	C[C@H]1CN([C@@H](C)CO)C(=O)c2cc(NS(=O)(=O)c3cccs3)ccc2O[C@H]1CN(C)S(=O)(=O)c1ccc(Cl)cc1	-2.0	-1.3	-0.7
55	CC(=O)N1[C@@H]2c3ccc(C4=CCCCC4)c(=O)n3C[C@H]1[C@H](CO)[C@H]2C(=O)NC1CCCC1	-4.4	0.3	-4.7
56	O=C(C[C@@H]1CC[C@H]2[C@@H](COC[C@H](O)CN2S(=O)(=O)c2ccccc2F)O1)NCc1ccccc1Cl	1.4	0.4	1.0
57	COc1cccc(NC(=O)N2CC(=O)N3[C@H](CO)[C@H](c4ccc(C#CCC5CCCC5)cc4)[C@@H]3C2)c1	-0.9	-11.1	10.2
58	C[C@H](CO)N1C[C@H](C)[C@H](CN(C)Cc2ccc(C(=O)O)cc2)Oc2ccc(NC(=O)Nc3cccc4ccccc34)cc2CC1=O	-2.3	2.0	-4.3
59	CCCNC(=O)Nc1ccc2c(c1)C(=O)N(C)[C@@H]1CC[C@@H](CC(=O)O)O[C@@H]1CO2	-1.6	4.8	-6.4
60	COc1ccccc1S(=O)(=O)N1CC[C@@H]2[C@H]1c1cc(Br)ccc1N[C@@H]2CO	4.4	11.2	-6.8

Continuation.
nr	canonical_smiles	DUX4 txn inh	DUX4 txn inh difference	DUX4 txn inh control
61	C[C@H](O)C#Cc1ccc2c(c1)O[C@H](CN(C)C(=O)Cc1ccccn1)[C@H](C)CN([C@@H](C)CO)S2(=O)=O	-2.9	-0.4	-2.5
62	C/C=C/c1ccc([C@H]2[C@@H](CO)N3CCCCN(S(=O)(=O)c4cccc(C)c4)C[C@@H]23)cc1	-44.1*	-25.8*	-18.3*
63	O=C(NC[C@@H]1[C@H](c2ccccc2)[C@@H](CO)N1C(=O)Cc1cccnc1)C1CCC1	5.8	0.4	5.4
64	CCCC(=O)Nc1ccc2c(c1)C(=O)N(C)C[C@@H](OC)[C@H](C)CN(C(=O)C1CCCC1)[C@@H](C)CO2	5.1	2.5	2.6
65	C[C@H](CO)N1C[C@H](C)[C@@H](CN(C)Cc2ccc(C(=O)Nc3ccccc3N)cc2)Oc2c(NS(=O)(=O)c3ccc(Cl)cc3)cccc2C1=O	-1.0	-4.9	3.9
66	CC=Cc1ccc2n(c1=O)C[C@@H]1[C@@H](CO)[C@H](C(=O)NCC3CC3)N(C(C)=O)[C@H]21 (mixture of isomers)	-0.4	-7.9	7.5
67	CO[C@H]1CN(C)C(=O)c2ccc(NC(=O)CC(F)(F)F)cc2OC[C@@H](C)N(C(=O)c2ccccc2F)C[C@@H]1C	-3.4	-4.8	1.4
68	COCC(=O)N1[C@H](C#N)[C@H](c2ccccc2-c2cccc(C)c2)[C@H]1CO	7.7	6.3	1.5
69	C[C@H](CO)N1C[C@H](C)[C@@H](CN(C)C(=O)Nc2ccc3c(c2)OCO3)OCCCC[C@H](C)Oc2ccc(NC(=O)Nc3ccc(C(F)(F)F)cc3)cc2C1=O	-0.7	-0.9	0.2
70	CC(=O)N(C[C@H]1N[C@H](CO)[C@@H]1c1ccc(-c2cccc(F)c2)cc1)C1CCCC1	0.8	-6.1	6.9
71	C[C@@H]1CN([C@H](C)CO)C(=O)c2cc(C#CCN(C)C)cnc2O[C@H]1CN(C)Cc1cccc(C(=O)O)c1	-5.2	-5.3	0.1
72	CO[C@@H]1CN(C)C(=O)c2cc(NS(C)(=O)=O)ccc2OC[C@@H](C)N(CCC(F)(F)F)C[C@@H]1C	0.4	1.4	-1.0
73	O=C(c1cccc(F)c1)N1C[C@H]2[C@@H](c3ccccc31)[C@H](CO)N2C(=O)C1CCOCC1	-1.8	-7.4	5.6
74	O=C(C[C@H]1CC[C@H]2[C@@H](COC[C@@H](O)CN2Cc2ccccc2F)O1)N1CCc2ccccc2C1	-5.4	1.3	-6.7
75	C[C@@H]1CN([C@@H](C)CO)C(=O)c2cc(NC(=O)CCC(F)(F)F)ccc2O[C@@H](C)CCCCO[C@H]1CN(C)C(=O)c1ccncc1	-0.3	-4.1	3.8
76	CN1CCCCN2[C@H](CO)[C@H](c3ccc(C#Cc4ccccc4F)cc3)[C@H]2C1	3.9	7.7	-3.8

Not all compounds are listed (hit frequency here may not be typical).
